# From PubChem BioAssay
# Anthrax LT inh: blocks cellular internalization of anthrax lethal toxin; Potency, µM (top dose mostly 40 µM), for inactives: top-dose activity change, negative = inhibition, most hits filed as inhibitors; Cells, anthrax lethal toxin internalization, FRET ratio (460/530); 0.67% of 70,000 active; active = well fitted falling ratio curve with the 530 nm signal flat; inconclusive = other ratio curves, or a change in one channel alone; inactive = flat curves in the ratio and both channels; the % refers to the ratio; note: % is set by controls: 0 for no effect and ±100 for the full control effect; nearly all actives have a fitted effect of over 50% in size; tested in ME-180 cells; beta-lactamase reporter
# Prx2 Sm inh: blocks S. mansoni peroxiredoxin 2 enzymatic activity; S. mansoni Prx2 activity coupled to TGR/GSH (TGR is thioredoxin glutathione reductase), NADPH fluorescence loss, qHTS; some inactives read as strong as hits; Potency, µM; 0.07% of 65,000 active; active means full or partial inhibition curve with a strong effect at the top dose; inconclusive means weaker partial or single-point curve; inactive means no accepted curve; note: series up to 57 µM; many of its hits are not listed in these tables
#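 Prx2 inhibition was measured as reduced NADPH consumption when electrons flowed from NADPH through TGR and glutathione to Prx2 and H2O2. Plates were read kinetically over 8 min; enzyme reagents were held at 4 deg C during dispensing.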
# * = called active by the depositor; ? = inconclusive; . = no result given; & = joins results of further samples; [ ] = remark or other dose. Potency is the fitted concentration of half-maximal effect. Only part of the results is shown. The share of hits here may be higher or lower than overall.
smiles,Anthrax LT inh,Prx2 Sm inh
COc1ccc(-c2nnn(Cc3nn[nH]n3)n2)cc1OC,-13.9%,>57
COc1cc(C(=O)Nc2ccncc2)cc(OC)c1OC,-5.4%,>57
CCC(=O)N(CCCN(C)C)c1nc(-c2cc(OC)ccc2OC)cs1,3.6%,>57
COc1cc(C(=O)Nc2nc(-c3cccs3)cs2)cc(OC)c1OC,?,>57
O=C(COc1ccc(F)cc1)NC1CC1,-10.7%,>57
Cc1ccc2c(c1)N(CC(=O)N1CCCc3ccccc31)C(=O)C(C)O2 (centres undefined),-18.8%,>57
COc1ccc(C2(O)CCN(Cc3nnnn3Cc3ccc(F)cc3)CC2)cc1,-9.1%,>57
COc1ccc(C(=O)NCc2cccnc2)cc1C(=O)NCc1cccnc1,-0.9%[3.58 µM],>57&>57
CCCCC(c1nnnn1CCOC)N1CCN(C(=O)c2ccco2)CC1 (centres undefined),-10.4%,>57
c1ccc(N2CCC3(CCNCC3)CC2)cc1,-18.8%,>57
CC(C)c1cc(C(=O)NCc2cccnc2)no1,-1.5%,>57
COCCNC(=O)Cn1c(=O)n(CCC(=O)NCCc2ccccc2)c(=O)c2ccccc21,2.6%,>57
COC(=O)c1ccc(C)c(NC(=O)Cn2cnc3ccccc3c2=O)c1,-0.5%,>57
CS(=O)(=O)Nc1ccc(N2CCCCC2)c(Cl)c1,-0.4%,>57
Cn1c(=O)[nH]c(=O)c2c1nc(NCCCn1ccnc1)n2Cc1ccccc1,1.6%,>57
COc1cccc(CN2CCN(CC(=O)Nc3ccccc3Cl)CC2)c1,-7.0%,>57
Cc1nnc(SCc2nc3ccccc3c(=O)n2-c2ccccc2Cl)n1N,-12.6%,>57
CCN(CC)S(=O)(=O)c1cccc2nsnc12,-28.3%,>57
CCN(CC)CCNC(=O)CS(=O)Cc1nc(-c2ccccc2Cl)oc1C (centres undefined),7.3%,>57
CC(=O)CC(C)(C)n1nnc(-c2ccccc2)n1,.,>57
O=c1c2ccccc2oc2nc(C3CCCCC3)n(Cc3ccco3)c(=O)c12,?,>57
Oc1ccccc1-c1cc(-c2ccc3c(c2)OCCO3)n[nH]1,20µM*,>57
CC1CN(CCC(=O)Nc2ccc3c(c2)OCO3)CC(C)O1 (centres undefined),16.7%,>57
Cc1ccc(S(=O)(=O)N[C@H](CN)C(=O)O)cc1,1.6%[8 µM],>57
CCc1nnc(NC(=O)NCN2C(=O)C3C4C=CC(C4)C3C2=O)s1 (centres undefined),-3.0%,>57

# Three consecutive records already listed, quoted:
smiles,Anthrax LT inh,Prx2 Sm inh
CS(=O)(=O)Nc1ccc(N2CCCCC2)c(Cl)c1,-0.4%,>57
Cn1c(=O)[nH]c(=O)c2c1nc(NCCCn1ccnc1)n2Cc1ccccc1,1.6%,>57
COc1cccc(CN2CCN(CC(=O)Nc3ccccc3Cl)CC2)c1,-7.0%,>57

# Following part.
smiles,Anthrax LT inh,Prx2 Sm inh
Cc1ccc2c(Cl)cc(Cl)c(OCc3c(C)noc3C)c2n1,-17.1%,>57
O=C(CCCn1c(=O)[nH]c2cc(Cl)ccc2c1=O)NCCN1CCN(c2ccccc2)CC1,8.6%,>57
CC1=C(C(=O)N2CCc3ccccc32)C2(CCC(C)CC2)OC1=O (centres undefined),10.4%,>57
Clc1ccc2nc(CSc3nnc(-c4c[nH]c5ccccc45)o3)cn2c1,-0.1%,>57
CS(=O)(=O)N1CCN(C(=O)c2c(F)cccc2F)CC1,7.2%,>57
CCCc1cc(C(=O)Nc2cccc(Cl)c2)no1,?,>57
COc1ccccc1-c1cc(C(=O)Nc2c(C)n(C)n(-c3ccccc3)c2=O)no1,1.5%,>57
O=C1CC(N2CCC(n3c(=O)[nH]c4ccccc43)CC2)C(=O)N1Cc1ccccc1 (centres undefined),7.3%,>57
CCCC1=C(C(=O)OCC)C(c2ccccc2OCC)NC(=O)N1C (centres undefined),?,>57
CCOC(=O)C1CCN(C(c2cc3ccc(C)cc3[nH]c2=O)c2nnnn2C2CCCCC2)CC1 (centres undefined),8.9%,>57
O=C(Oc1ccccc1C(=O)Oc1ccccc1)c1ccco1,-1.2%,.
COc1ccc(NC(=O)CSc2nnc(Cc3cccn3C)n2CCc2ccccc2)cc1OC,?,>57
COc1ccc(N(C)S(=O)(=O)c2ccc3c(c2)oc(=O)n3C)cc1,-18.2%,>57
c1ccc(-n2c(SCC3CCCCO3)nnc2-c2cccs2)cc1 (centres undefined),?,>57
COC(=O)c1sc(S(=O)(=O)N2CCCCC2)c(C(=O)OC)c1C,-4.9%,>57
N=C1C=CC(=C(c2ccc(N)cc2)c2ccc(N)cc2)C=C1,1.3%[8 µM],>57
O=C(NCCCN1CCOCC1)c1ccc(CS(=O)(=O)c2ccc(Br)cc2)o1,-10.6%,>57
CCn1c(SCC(=O)Nc2nc3ccc(OC)cc3s2)nnc1-c1ccoc1C,-8.8%,>57
Cc1cc(-c2ccccc2)nn1-c1nc2c(c(=O)[nH]c(=O)n2C)n1C,-11.5%,>57
COC(=O)N1CCC[C@@]2(CCN(c3ccccn3)C2)C1,?,>57
NC(=O)NCC12CC3CC(CC(C3)C1)C2,-6.9%,>57
CC(=O)Nc1ccc(S(=O)(=O)N2CCN(c3nc(NC4CCCC4)c4ccccc4n3)CC2)cc1,?,.
Cc1ccc(NC2=NCC(=O)N2Cc2ccc3c(c2)OCO3)cc1,?,>57
Oc1c(Cl)cc(Cl)cc1Sc1cc(Cl)cc(Cl)c1O,3.16µM*,.
Cc1ccc(S(=O)(=O)NC(=O)OC23COCN2COC3)cc1,?,>57
COc1cc(-c2cc(C(=O)N3CCN(c4ccccn4)CC3)c3ccccc3n2)cc(OC)c1OC,?,>57
CCOC(=O)Cc1nn(CCc2ccccn2)c(=O)c2ccccc12,-1.5%,>57
N#Cc1nc(COc2ccc(F)cc2)oc1NCCCn1ccnc1,-0.6%,>57
CCOC(=O)c1cc2sccc2n1CC(=O)N1CCCC1,12.6%,>57
CC(C)N(CC(=O)O)CC(=O)O,13.9%[8 µM],>57
CCCCCCOc1cccc(N)c1,7.1%,>57
CCCN(CCC)c1ncnc2nc[nH]c12,5.6%,>57
CC(C)Cn1c(CCC(=O)O)ccc1-c1cccs1,.,>57
CCCc1nc2sc3ccccc3c(=O)c2c(=O)n1Cc1ccco1,?,>57
CC(=O)c1ccc(S(=O)(=O)NCCCC(=O)NCCc2ccccn2)cc1,8.2%,>57
COc1ccc(CNc2nc(-c3ccc(N(C)C)cc3)nc3ccccc23)c(OC)c1,?,>57
CCCCc1nc2ccccc2c(=O)n1-c1ccc(O)cc1,1.9%,>57
O=C(Nc1ccc(N2CCOCC2)c(Cl)c1)c1ccc(Br)o1,-6.3%,>57
COc1ccc(-n2c(N)c(C(=O)NCc3ccco3)c3nc4ccccc4nc32)c(OC)c1,?,>57
Cc1cc2sc(C)[n+](CCCOS(=O)(=O)O)c2cc1C,-12.9%[8 µM],>57
CCOC(=O)c1nnn(-c2nonc2N)c1CN(C)Cc1ccccc1,-0.6%,>57
CN(CC(=O)NC1CCCCCC1)S(=O)(=O)c1ccccc1,13.3%,>57
COCCCN1C(=O)C(=O)/C(=C(/O)c2ccc(OC(C)C)cc2)C1c1ccc(O)c(OC)c1 (centres undefined),2.6%,>57
Cc1sc2nc(C(C)C)nc(SCC(=O)NCc3ccco3)c2c1C,-6.4%,>57
CCOC(=O)N1CCN(C(=O)CN(c2ccc(Cl)c(C(F)(F)F)c2)S(C)(=O)=O)CC1,-10.3%,.
O=C(Cn1nnc(-c2ccc(Cl)cc2)n1)NC1CC2CCC1C2 (centres undefined),?,>57
Cc1ccc2c(CSc3nnc(C4CC4)n3N)cc(=O)oc2c1,-5.4%,>57
Cc1cc(C(=O)CSC(=S)SC(C)(C)C)ccc1Cl,?,>57
Cc1cc(=O)n2c(ccc3ccccc32)c1C#N,6.6%,>57
COc1ccccc1CNC(=O)CN1C(=O)C(C)N(c2ccc(C)cc2)C1=O (centres undefined),?,>57

# Further entries
canonical_smiles,Anthrax LT inh,Prx2 Sm inh
COC(C)(C)[C@]12CC(O)(c3ccccc3)ON1[C@H]1CCCCC1N2O (some centres undefined),?,>57
O=C(O)C12C3CCCC1C32c1ccccc1 (centres undefined),-19.8%,>57
COCCNC(=O)C1CCCN(c2ncccn2)C1 (centres undefined),-1.0%,>57
CCCCCNC(=O)C(C)NS(=O)(=O)c1ccc(OC)cc1 (centres undefined),5.7%,>57
O=C(COC(=O)c1ccccn1)Nc1ccccc1Cl,-1.5%,>57
CCC(C)Sc1nc2c(cnn2-c2ccccc2)c(=O)[nH]1 (centres undefined),22.3%,>57
FC(F)(F)C1=NC(C(F)(F)F)=NP(N2CCOCC2)(N2CCOCC2)=N1,1.8%,>57
O=C(c1ccco1)N1CCN=C1SCc1cccc(Cl)c1,-18.5%,>57
c1nnn(C23CC4CC(CC(C4)C2)C3)n1,?,>57
O=C(CN1CCN(Cc2cccc(Cl)c2)C1=O)N1CCC2(CC1)OCCO2,-3.6%,>57
CCOc1ccc(N2CCCn3c2nc2c3c(=O)n(CCc3ccccc3)c(=O)n2C)cc1,-8.4%,>57
CCOC(=O)c1c(C)nn(Cc2ccccc2)c1N,0.8%,>57
COC(=O)c1ccccc1NC(=O)C1CCN(S(C)(=O)=O)CC1,.,>57
CCN1CCC[C@H]1CNC(=O)c1c(OC)ccc(Br)c1OC,-15.2%,>57&>57
c1coc(-c2nnc(SCc3cn4ccccc4n3)o2)c1,5.4%,>57
O=C(c1cc(-c2cccs2)on1)N1CCc2ccccc2C1,-14.7%,>57
COc1ccc(CCN(C)CCC[C@@](C#N)(c2cc(OC)c(OC)c(OC)c2)C(C)C)cc1OC,18.8%,>57
COC(=O)c1ccc(CSc2nnc(NCc3ccccc3)s2)o1,-20.6%,>57
O=C(c1ccc(S(=O)(=O)NCC2CCCO2)cc1)N1CCc2ccccc21 (centres undefined),-14.2%,>57
CCCc1nnc(SCCSc2nnc(CCC)n2N)n1N,-3.9%,>57
O=c1c(-c2ccc(F)cc2)nc2cnc(Oc3ccccc3)nc2n1C[C@H]1CCCO1,?,>57
CCOc1ccc(S(=O)(=O)NCc2csc(C)n2)cc1,5.7%,>57
COCc1cc(C)nc(N2CCOCC2)c1C#N,-21.0%,.
CCOc1ccccc1N=C1SCCCN1C,3.8%,>57
CN(C)S(=O)(=O)N1CCCN(S(=O)(=O)N(C)C)CC1,-2.5%,>57
Cc1ccc(NC(=O)C2CCCN(S(=O)(=O)c3cccs3)C2)cc1 (centres undefined),-20.6%,>57
CCCCN(CC)S(=O)(=O)c1ccc(C(=O)Nc2nnc(-c3cccs3)o2)cc1,-8.3%,.
NC(=O)c1ccc(C(=O)Nc2ccc([As](=O)(O)O)cc2)cc1,-1.2%[8 µM],.
CC(C)Cn1c(=O)n(C)c(=O)c2[nH]cnc21,0.7%,>57
CCCC(=O)N=C1SC2CS(=O)(=O)CC2N1c1ccc(CC)cc1 (centres undefined),-20.1%,>57

# Reprinted at random: 5 entries already listed.
canonical_smiles,Anthrax LT inh,Prx2 Sm inh
CCOc1ccccc1N=C1SCCCN1C,3.8%,>57
O=C(CN1CCN(Cc2cccc(Cl)c2)C1=O)N1CCC2(CC1)OCCO2,-3.6%,>57
CN(C)S(=O)(=O)N1CCCN(S(=O)(=O)N(C)C)CC1,-2.5%,>57
COC(=O)c1ccc(CSc2nnc(NCc3ccccc3)s2)o1,-20.6%,>57
CCCc1nnc(SCCSc2nnc(CCC)n2N)n1N,-3.9%,>57

# More compounds follow.
canonical_smiles,Anthrax LT inh,Prx2 Sm inh
COc1ccc(-c2nsc3c(N4CCCC4)ncnc23)cc1,-0.6%,>57
O=C(O)c1ccc2c(c1)N(Cc1cccc(F)c1)C(=O)CS2,4.9%,>57
Cc1cc(C)cc(-n2c(=O)c3sccc3n(CC(=O)NCc3ccco3)c2=O)c1,1.1%,>57
O=C(Nc1ccc2oc(-c3ccccc3)nc2c1)c1ccc2c(c1)OCCO2,?,>57
Cc1ccc2[nH]c(=O)c(CN(CC3CCCO3)C(=O)c3ccncc3)cc2c1 (centres undefined),-4.4%,>57
CCC(C)NC(=O)c1cnn2c1NC(c1ccc3c(c1)OCO3)CC2C(F)(F)F (centres undefined),-2.6%,>57
C[C@H]1NC(=O)NC1=O,2.3%&-9.7%[3.58 µM],>57&>57
OC(CNCC1COc2ccccc2O1)COCc1cccs1 (centres undefined),-10.6%,>57
CNC(=O)[C@]1(C)C[C@H]1[C@H](NC(=O)[C@]1(C)C[C@H]1[C@H](NC(=O)[C@]1(C)C[C@H]1[C@H](NC(=O)[C@]1(C)C[C@H]1[C@H](NC(=O)OCc1ccccc1)c1ccccc1)c1ccccc1)c1ccccc1)c1ccccc1,-2.8%,.
CCNc1nc(NCC)nc(Nn2cnnc2)n1,-6.8%,.
N#CC1=C(N)NC(SCc2ccccc2)=C(C#N)C12CCCCC2,?,.
Cc1cc(C)c(NC(=O)CS(=O)CC(=O)NCC2CCCO2)c(C)c1 (centres undefined),18.9%,>57
CNc1nc(-c2ccccc2CN(C)C)nc2ccccc12,-1.4%,>57
Cc1ccc(N2C(=O)c3ccccc3C2Nc2cccnc2)nc1 (centres undefined),-6.6%,>57
FC(F)(F)c1ccccc1Nc1nccs1,?,>57
